Assay outcomes from PubChem BioAssay.
MT1-MMP reporter = inhibitors of MT1-MMP promoter transcription, cell-based, luciferase reporter, luminescence (AID 618). MT1-MMP promoter luciferase reporter cells, luminescence. calls from a first round at 10 µM; hits with a dose series show EC50 in µM. 87,000 tested, 0.62% active;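 active means over half of the reporter light lost at 10 µM or EC50 under 50 µM; inactive means the rest and hits that failed the dose series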;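 further: actives suppress MT1-MMP promoter-driven transcription so potencies describe inhibitors; HT1080 fibrosarcoma cells; overnight exposure; toxic or luciferase-blocking compounds were not removed from the actives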
WNV NS2B-NS3 inh = inhibitors of WNV NS2B-NS3 protease, primary screen, biochemical, fluorogenic substrate; z-score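 (tested at a level between 10 and 100 µM)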; Genome polyprotein (West Nile virus), P06935; 65,000 tested, 0.18% active; fluorogenic substrate Ex360/Em465; stronger effect = lower value;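 active means z-score at -3 or under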;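 further: score is relative to mean and spread of the compound wells of a plate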
Target sequence (P06935 1371-1501 limits assumed): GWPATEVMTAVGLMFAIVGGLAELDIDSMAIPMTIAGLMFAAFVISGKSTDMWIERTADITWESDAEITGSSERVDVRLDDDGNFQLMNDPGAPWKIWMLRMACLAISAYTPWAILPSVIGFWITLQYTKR
Target sequence (P06935 1502-1679 limits assumed): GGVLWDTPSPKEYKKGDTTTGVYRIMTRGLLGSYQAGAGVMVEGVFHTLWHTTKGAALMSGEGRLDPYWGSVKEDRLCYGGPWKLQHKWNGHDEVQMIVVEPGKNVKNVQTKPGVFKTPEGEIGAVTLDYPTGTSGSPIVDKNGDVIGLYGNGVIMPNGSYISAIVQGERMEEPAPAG
Hsc70 ATP site = Hsc70 inhibitors, probe displacement, primary screen, biochemical, fluorescence polarization (AID 568). Heat shock cognate 71 kDa protein (Homo sapiens). Hsc70 fluorescence polarization, probe displacement; higher % means a stronger effect; strong numbers were not always called active. displacement, % at 20 µM; hits with a dose series show IC50 in µM. 83,000 tested, under 10 active;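 active means displacement above 50% without optical interference and an IC50 on retest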;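 further: ATPase domain with a fluorescein-tagged ATP probe; 0% = vehicle and 100% = excess ADP; read after one hour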
* hit, by the source's call; i = inactive; . = not tested or not shown; + = active, no number. These rows are one share of the data (hit frequency here may not be typical).

SMILES | MT1-MMP reporter | WNV NS2B-NS3 inh | Hsc70 ATP site
Oc1c(C(c2cccc(F)c2)N2CCN(Cc3ccccc3)CC2)sc2ncnn12 (stereo not given) | i | 0.87 | 3.5%
CC(C)(C)NC(=O)CSc1nc2ccc(NC(=O)CSc3nnnn3Cc3ccccc3)cc2s1 | i | . | -4.2%
NC(=O)c1c(NC(=O)CN2C(=O)CCC2=O)sc2c1CCCCC2 | i | 1.01 | -5.1%
N#Cc1nc(COc2ccc(Br)cc2)oc1NCCN1CCOCC1 | i | 0.19 | 4.7%
CC(C(=O)NCc1ccco1)n1nc(-c2ccccc2)c2cc(Cl)ccc21 (stereo not given) | i | 0.94 | 2.1%
COc1cccc(N2C(=O)C3ON(c4ccccc4)C(c4cccs4)C3C2=O)c1 (stereo not given) | i | 0.3 | -1.0%
CC(C)N1CCc2c(sc(N)c2C#N)C1 | i | -0.64 | -27.3%
COC(=O)c1ccccc1NC(=O)C1CCN(C(=O)c2cc(OC)cc(OC)c2)CC1 | i | -1.18 | 7.7%
COc1ccc2c(c1)CC(C1(O)C(=O)N(C)c3ccccc31)C2=O (stereo not given) | i | -0.1 | 4.9%
COc1ccc(S(=O)(=O)N(C)C2CCN(C)CC2)cc1 | i | 0.42 | 1.2%
CC(C)c1cc(C(=O)Nc2cccnc2)no1 | i | -0.51 | -2.5%
CC(C)Oc1cccc(C(=O)Nc2ccccc2N2CCOCC2)c1 | i | -0.22 | 5.9%

Quoted from the results shown for reference:
SMILES | MT1-MMP reporter | WNV NS2B-NS3 inh | Hsc70 ATP site
COC(=O)c1ccccc1NC(=O)C1CCN(C(=O)c2cc(OC)cc(OC)c2)CC1 | i | -1.18 | 7.7%
COc1ccc2c(c1)CC(C1(O)C(=O)N(C)c3ccccc31)C2=O (stereo not given) | i | -0.1 | 4.9%
COc1ccc(S(=O)(=O)N(C)C2CCN(C)CC2)cc1 | i | 0.42 | 1.2%
CC(C)c1cc(C(=O)Nc2cccnc2)no1 | i | -0.51 | -2.5%
CC(C)Oc1cccc(C(=O)Nc2ccccc2N2CCOCC2)c1 | i | -0.22 | 5.9%

Next part
SMILES | MT1-MMP reporter | WNV NS2B-NS3 inh | Hsc70 ATP site
COc1ccc(-n2nnnc2SCC(=O)c2ccc(OC)c(OC)c2)cc1 | i | -1.04 | -5.3%
CCCCC(=O)N1CC2(C)CN(C(=O)CCCC)CC(C)(C1)C2=O | i | -0.7 | -2.1%
CCOc1ccc(C(C)=O)cc1N1C(=O)C2C(C1=O)C1C=CC2C12CC2 (stereo not given) | i | . | 2.6%
COc1ccc(OC)c(C(=O)CSc2nc3ncccc3[nH]2)c1 | i | 0.59 | -2.1%
C=CCc1cccc2cc(C(=O)NCc3cccnc3)c(=O)oc12 | i | 1.03 | 0.6%
CC(=O)Nc1ccc(NC(=O)C2CCCN(c3ncccn3)C2)cc1 (stereo not given) | i | . | -3.0%
O=C(NC1CS(=O)(=O)CC1NCc1ccco1)c1ccccc1 (stereo not given) | i | 1.22 | 2.9%
O=C(Nc1nccs1)c1ccc(S(=O)(=O)c2ccccc2)cc1 | i | -0.01 | -5.4%
CC1CCN(c2nc(-c3ccccc3)c(C#N)c(=O)[nH]2)CC1 | i | -1.76 | -1.1%
O=S(=O)(c1ccc(Cl)cc1)N1CCC(n2cnc3cc(C(F)(F)F)ccc32)CC1 | i | . | 3.3%
O=C(Cn1cnc2c(cnn2-c2ccccc2)c1=O)N1CCOCC1 | i | -0.18 | -0.5%
COC(=O)c1cc(O)c(OCc2ccccc2)c(O)c1 | i | -0.68 | -1.9%

3 compounds from above with just WNV NS2B-NS3 inh and Hsc70 ATP site.
SMILES	WNV NS2B-NS3 inh	Hsc70 ATP site
N#Cc1nc(COc2ccc(Br)cc2)oc1NCCN1CCOCC1	0.19	4.7%
CC(C(=O)NCc1ccco1)n1nc(-c2ccccc2)c2cc(Cl)ccc21 (stereo not given)	0.94	2.1%
COc1cccc(N2C(=O)C3ON(c4ccccc4)C(c4cccs4)C3C2=O)c1 (stereo not given)	0.3	-1.0%

Next compounds
SMILES | MT1-MMP reporter | WNV NS2B-NS3 inh | Hsc70 ATP site
Cc1ccc2cc(CN(CC3CCCO3)S(=O)(=O)c3cccc4nsnc34)c(=O)[nH]c2c1 (stereo not given) | i | -1 | -6.4%
O=C(COC(=O)CN1C(=O)C2CC=CCC2C1=O)Nc1cc(C(F)(F)F)ccc1N1CCOCC1 (stereo not given) | i | 1.57 | -2.5%
COc1ccc(-n2ccnc2SCC(=O)Nc2ccccc2)cc1 | i | 1.42 | 1.9%
COc1ccc(N=c2ssnc2Cl)cc1 | i | . | 3.4%
COc1ccc(-n2nnnc2-c2ccccc2)cc1 | i | . | -0.4%
CS(=O)(=O)c1ccc2nc(NC(=O)Cc3ccccc3)sc2c1 | i | 0.21 | 3.1%
CCSc1nnc(NC(=O)c2ccc(C)o2)s1 | i | 0.15 | -0.1%
CNC(=O)CSc1nnc(-c2cccs2)o1 | i | . | 7.2%
Cc1cc(C(=O)N(C)CC(=O)Nc2ccccc2C(F)(F)F)c(C)o1 | i | 2.07 | 4.9%
Cc1cc(C(=O)COc2ncnc3sccc23)c(C)n1C | i | 1.2 | 12.5%
CC1=CC(C)(C)N(C(=O)CN2C(=O)c3ccccc3C2=O)c2ccccc21 | i | -0.62 | -5.6%
CCOC(=O)c1cc2c(ccn2-c2ccc(F)cc2)n1CC(=O)N1CCN(C(=O)c2ccco2)CC1 | i | 0.06 | -7.8%
CN(CC(=O)NCCN1CCN(Cc2ccccc2)CC1)S(=O)(=O)c1cccc2nsnc12 | i | -0.81 | 2.4%
CN(CCO)C(=O)c1cccc2c1-c1ccccc1C2=O | i | -1.05 | 7.3%
CCCCCn1c(Sc2nc3ccccc3s2)nc2c1c(=O)[nH]c(=O)n2C | i | -0.4 | -0.9%
COCCn1c(SCC(=O)NC(=O)NC(C)C)nc2ccccc21 | i | . | -1.7%
CCCCc1cc(=O)oc2c(CN(CC)CC)c(O)c(Cl)cc12 | i | . | 1.6%
CCCCOc1ccc(S(=O)(=O)Nc2cc(OC)ccc2OC)cc1 | i | -0.67 | 1.3%
O=C(CSc1nc2ccccc2[nH]1)c1ccc(Cl)s1 | i | . | 0.7%
CC(C)(C)c1ccc(S(=O)(=O)NCCOCC(F)(F)C(F)F)cc1 | i | -0.62 | 35.0%
CC(C)CCCNc1nc(N2CCOCC2)nc(N2CCOCC2)n1 | i | -0.6 | 4.8%
CCC(c1nnnn1C(C)(C)C)N(Cc1cc2cccc(C)c2n2nnnc12)C1CCCC1 (stereo not given) | i | . | 3.4%
Cc1nc2ccccc2c(=O)n1C1CCCCCC1 | i | -1.2 | 8.2%
C=CCN1C(=O)C(O)(CC(=O)c2ccc(Cl)cc2)c2ccccc21 (stereo not given) | i | . | -10.2%
CC1CC(C)CN(S(=O)(=O)c2ccc(C(=O)NCCCn3ccnc3)cc2)C1 (stereo not given) | i | -0.23 | 3.0%
O=C(CSc1nnc(Nc2ccccc2)s1)NCc1ccco1 | i | 0.94 | -3.2%
CN1CCC(N(C)CC(=O)Nc2cccc(Oc3ccccc3)c2)CC1 | i | 0.18 | 0.6%
CCCn1c(SCC(=O)Nc2ccccc2N2CCOCC2)nc2c1c(=O)n(C)c(=O)n2C | i | . | 0.5%
Cc1ccc2c(CNCc3ccco3)cc(=O)oc2c1 | i | -0.85 | -3.9%
COc1cccc(C(=O)n2cnnc2N)c1OC | i | -0.43 | 5.0%
C=CCN1CCN(C(CC(C)C)c2nnnn2CCOC)CC1 (stereo not given) | i | 0.06 | 8.4%
CCOC(=O)c1cc(NC(=O)C2C3CCC(O3)C2C(=O)O)cc(C(=O)OCC)c1 (stereo not given) | i | . | 2.5%
COc1cc2cc(CN(CCO)S(=O)(=O)c3ccccc3)c(=O)[nH]c2cc1OC | i | . | -0.1%
COC(=O)COc1cccc(-n2cnnn2)c1 | i | 1.4 | 1.0%
CC(=O)Nc1c(Cl)n(C(C)=O)c2ccccc12 | i | 1.02 | -1.2%
O=C(c1cc(N2CCCCC2)nc2ccccc12)N1CCOCC1 | i | -0.66 | 2.2%
Cn1c(Cn2c(=O)sc3ccccc32)nnc1SCC(=O)Nc1cccc(Cl)c1 | i | -0.45 | -1.0%
O=C(CSc1nn(-c2ccc(Cl)cc2)c(=S)s1)N1CCN(C(=O)c2ccco2)CC1 | i | -1.55 | 0.4%
COC(Cn1c(C)c(C(C)=O)c(C(C)=O)c1C)OC | i | . | -2.0%
CN(C(=O)c1cccc(C#N)c1)c1nnc(-c2ccncc2)s1 | i | -1.8 | 1.3%
CC(=O)OC1=Cc2c(ccc3ccc(=O)oc23)OC1(C)C | i | . | 1.7%
Cc1coc(NC(=O)CSc2nc(-c3ccncc3)cc(C(F)(F)F)c2C#N)n1 | i | 0.27 | 3.1%
COc1cc(NC(=O)C23CC4CC(C2)CC(n2nnc(C)n2)(C4)C3)c(OC)cc1Cl | i | -0.06 | 0.3%
COc1ccc(-c2cc(C(F)F)n3ncc(C(=O)N4CCN(C)CC4)c3n2)cc1 | i | . | 1.3%
Cc1cc(=O)n2[nH]cc(C(=O)O)c2n1 | i | . | 3.5%
Cn1c(Cn2c(=O)sc3ccccc32)nnc1SCC(=O)Nc1cccc(F)c1 | i | -0.48 | -0.5%
CCOC(=O)NC(=O)CN1C(=O)NC(C)(c2ccccc2)C1=O (stereo not given) | i | -1.5 | -2.4%
COC(=O)Cc1c(C)nc2nc(-c3ccco3)[nH]n2c1=O | i | 0.61 | -2.2%
O=C(Nc1ccc(F)cc1F)N1CCN(C/C=C/c2ccccc2)CC1 | i | 0.17 | -0.9%
Cc1ccc(-n2nnnc2SCC(=O)c2cc(C)n(-c3cc(C)on3)c2C)c(C)c1 | i | 0.97 | -11.9%
O=C1c2ccccc2C(=O)N1CCCc1nc2ccccc2c(=O)n1-c1cccnc1 | i | -0.51 | -4.2%
Cc1ccc(Nc2cc(C)nc(-c3ccccc3O)n2)cc1 | i | . | 5.3%
Cn1c(=O)cc(OCCCC(=O)Nc2ccc3c(c2)OCCO3)c2ccccc21 | i | 0.91 | -0.8%
COc1ccc(Cl)cc1N(CC(=O)Nc1ccc2c(c1)OCCO2)S(C)(=O)=O | i | -0.67 | -1.0%
COc1ccc(-c2nnn(CC(=O)Nc3sc4c(c3C#N)CCCC4)n2)cc1 | i | 0.4 | -2.9%
O=C(NCc1ccccn1)C1CCN(S(=O)(=O)N2CCCCC2)CC1 | i | 0.41 | -15.0%
Cc1ccc(Cl)cc1N1CCN(S(C)(=O)=O)CC1 | i | . | 2.6%
CCOC(=O)c1c(C)oc2cc3c(C(=O)OCC)c(C)oc3cc12 | i | . | 4.0%
CC(NC(=O)NCC1CCCO1)(C(F)(F)F)C(F)(F)F (stereo not given) | i | 0.31 | 5.0%
CCOc1ccc(-c2nc(=S)[nH][nH]2)cc1 | i | -0.18 | -3.7%

Continued:
SMILES | MT1-MMP reporter | WNV NS2B-NS3 inh | Hsc70 ATP site
CC(C)(C)OC(=O)C1C(=O)CC(C)(O)C(C(=O)OC(C)(C)C)C1c1ccco1 (stereo not given) | i | . | 2.0%
CC(C)c1ccc(C2C(C#N)=C(N)N3C(=C2C#N)Sc2ccccc23)cc1 (stereo not given) | i | . | -30.7%
CC(C)[C@H](N)c1nnc(SCC(=O)c2ccc(Cl)cc2)o1 | i | . | -3.2%
Cc1nnsc1NC(=O)OCC(C)C | i | 0.75 | 4.6%
Cc1ccc(-n2c(-c3cccnc3)n[nH]c2=S)c(C)c1 | i | . | -0.2%
Cc1ccc2nc(S(=O)(=O)O)[nH]c2c1 | i | -0.84 | 1.1%
N#Cc1c(N)c(C(=O)c2ccc(Br)cc2)n2c1CCC2 | i | -0.92 | 5.7%
CCSc1nnnn1-c1ccccc1 | i | . | 3.2%
N#CC1=C(N)Oc2cc(Nc3ccccc3)ccc2C1c1ccncc1 (stereo not given) | i | . | 2.7%
COC(=O)c1sc(NC(=O)c2ccc(OC)cc2OC)nc1C | + | 0.28 | -1.0%
CCCCNC(=O)c1c[nH]c2ccc(S(=O)(=O)Nc3ccc(OCC)cc3)cc2c1=O | i | -1 | -6.1%
O=C(O)C(O)c1ccco1 (stereo not given) | i | 1.04 | 4.6%
CCOc1ccc(OCC)c(NC(=O)CN2CCN(c3cccc(C)c3)CC2)c1 | i | -0.65 | -0.7%
CC(=O)c1c(C)[nH]c(C(=O)COc2cc(C)cc(C)c2)c1C | i | . | 3.6%
CC(C)(C)Nc1nc(C(N)=O)nc(N2CCOCC2)n1 | i | -1.01 | 4.7%
COc1cccc(N(C(=O)Cn2nnc3ccccc32)C(C(=O)NCc2ccco2)c2cccnc2)c1 (stereo not given) | i | 0.03 | -3.5%
CCN=C1SC(C(=O)Nc2ccc(Cl)c(Cl)c2)CC(=O)N1CC (stereo not given) | i | 0.09 | 4.7%
CCc1ccc(OCC(=O)Nc2ccc(S(=O)(=O)N3CCCC3)cc2)c(Br)c1 | i | . | -1.8%
COCCNC(=O)c1c(N)n(-c2ccccc2)c2nc3ccccc3nc12 | i | . | -0.4%
CCNc1nc(NC(C)C)nc(NS(=O)(=O)c2ccc(Cl)cc2)n1 | i | 0.65 | -2.4%
Cc1coc(C)c1C(=O)CC1(O)C(=O)N(CCc2ccccc2)c2ccccc21 (stereo not given) | i | 0.56 | 1.6%
CCN(CC)S(=O)(=O)c1ccc2c(c1)c(=O)c(C(=O)NCCOC)cn2C | i | -0.34 | -6.2%
